# From PubChem
# MLL AF4-AF9 inh: blocks AF4 peptide binding to human AF9 | AlphaScreen, biotin-AF4 peptide binding to FLAG-AF9 | inhibition, % at 10 µM | 0.47% of 350,000 active;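 active = every replicate reaching a set inhibition limit, whatever the replicate mean, cut at about 25% in these data; inconclusive = mean inhibition reaches that limit but some replicates miss it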;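 also: 0% = plate neutral control median and 100% = total signal loss; the record names both 10 and 1 µM as test concentration; the first replicate is given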
# Target sequence (P42568 whole entry, looked up): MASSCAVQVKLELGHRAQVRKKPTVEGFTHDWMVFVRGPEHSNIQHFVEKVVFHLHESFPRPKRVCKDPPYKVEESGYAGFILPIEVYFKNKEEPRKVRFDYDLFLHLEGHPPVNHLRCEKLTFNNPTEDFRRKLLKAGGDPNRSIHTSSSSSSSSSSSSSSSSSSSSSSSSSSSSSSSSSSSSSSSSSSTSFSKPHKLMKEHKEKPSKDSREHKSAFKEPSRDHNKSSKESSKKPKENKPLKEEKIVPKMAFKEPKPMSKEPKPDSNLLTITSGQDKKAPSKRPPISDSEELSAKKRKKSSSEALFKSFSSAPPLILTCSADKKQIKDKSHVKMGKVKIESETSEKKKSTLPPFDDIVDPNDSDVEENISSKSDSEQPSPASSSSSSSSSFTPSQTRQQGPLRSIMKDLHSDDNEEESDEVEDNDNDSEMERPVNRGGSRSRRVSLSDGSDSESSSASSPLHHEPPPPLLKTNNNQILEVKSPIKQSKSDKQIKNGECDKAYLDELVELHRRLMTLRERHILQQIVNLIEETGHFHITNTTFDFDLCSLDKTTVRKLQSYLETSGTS
# rRNA inh HTS: inhibits bacterial ribosomal RNA function over humanized ribosomes; E. coli WT GFP vs humanized-ribosome RFP mutants, fluorescence, 24 h; hits give low values; DMSO median 0, no signal -100; AID 720706; GFP signal change (wild-type ribosome), % (test concentration not listed); 1.6% of 350,000 active;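 active = significant combined selectivity score with lowered wild-type GFP, culture density cut under 30%, mutant RFP and density less affected; inactive = any of these conditions unmet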; also: one replicate is shown; some compounds called inactive have numbers as strong as hits
# Calb FLC: affects C. albicans growth with fluconazole | 0.57% of 300,000 active | C. albicans CaCi-2 (fluconazole-resistant clinical isolate) + fluconazole, Alamar Blue growth, 48 h | AID 1979 | growth inhibition, % (test concentration not listed);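 active = most replicates above 75%; inconclusive = exactly half above 75%; inactive = most below 75%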;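 also: all wells also contain fluconazole at 8 µg/ml as a sub-toxic cotreatment; 0% = median of DMSO wells and 100% = median of geldanamycin control wells; wells of about 8 µL received 7.5 nL stock; the first replicate is given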
# RanGTP-Impb inh: inhibitors of RanGTP-importin-beta interaction, primary screen, biochemical, FRET, CFP-Ran, YFP-importin-beta, homogeneous | cell-free CFP-Ran/YFP-importin-beta FRET ratio | inhibition, % (test concentration not listed) | 1.1% of 300,000 active | AID 2216;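 active = most replicates above 15%; inconclusive = exactly half above 15%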;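 also: 0% = DMSO wells and 100% = Ran loaded with GDP instead of GTP; wells of about 40 µL received 100 nL stock; the first replicate is given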
# Beta apoptosis: beta cell apoptosis inhibition; INS-1E cytokine-induced death, ATP luminescence, 48 h; percent of positive-control rescue, neutral wells zero; protection from apoptosis, % (test concentration not listed); 0.8% of 300,000 active; AID 435005;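 active = all replicates at 75% or more, or half of them and the mean; inconclusive = half reach 75% but not the mean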;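 also: 0% = cytokine-treated negative control wells and 100% = positive control rescue; higher means more ATP so stronger rescue from cytokine killing; wells of about 40 µL received 100 nL stock; the first replicate is given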
# T cruzi inh: T. cruzi replication inhibition. T. cruzi beta-gal in NIH3T3, luminescence, 90 h. inhibition, % (concentration not given with the values). 1.4% of 300,000 active;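 active = mean inhibition across valid replicates above about 55%, limit read from the data; inconclusive = mean below that limit but half or more replicates reach it; inactive = mean below it, under half of replicates reach it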;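 also: signal also drops with host cell toxicity which is not excluded here; 0% = plate median of DMSO wells and 100% = zero luminescence signal; higher percent means less beta-gal luminescence so fewer parasites; stock transfer was 50 nL into about 50 µL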
# ALR H2O2 inh: human ALR oxidase inhibition via reduced H2O2; P55789; purified ALR, DTT oxidation, H2O2 HRP-luminol luminescence; inhibition, % (no concentration beside the values); 3.8% of 290,000 active; AID 485317;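 active = mean and each replicate at 75% or more; inconclusive = only one of the two met; inactive = neither met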;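 also: stock transfer was 7.5 nL into about 7.5 µL; 0% = neutral wells and 100% = wells with inactivated enzyme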
# Target sequence (P55789 whole entry, looked up): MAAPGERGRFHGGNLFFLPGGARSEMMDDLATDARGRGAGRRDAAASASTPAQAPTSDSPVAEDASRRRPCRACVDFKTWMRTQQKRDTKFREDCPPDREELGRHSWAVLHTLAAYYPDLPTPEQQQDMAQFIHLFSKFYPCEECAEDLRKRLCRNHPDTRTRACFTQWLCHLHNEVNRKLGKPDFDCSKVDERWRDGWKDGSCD
# FGF22 binding: binders of recombinant human FGF22 by thermal shift | AID 651658 | Q9HCT0 | 1.5% of 340,000 active | calls only at 9.99 µM | SYPRO orange fluorescence; percent of sucrose octasulfate shift, DMSO zero;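 active = melting point raised past a set limit in the mean and every replicate; inconclusive = no clear call; three in four hits are not shown here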
# Target sequence (Q9HCT0 whole entry, looked up): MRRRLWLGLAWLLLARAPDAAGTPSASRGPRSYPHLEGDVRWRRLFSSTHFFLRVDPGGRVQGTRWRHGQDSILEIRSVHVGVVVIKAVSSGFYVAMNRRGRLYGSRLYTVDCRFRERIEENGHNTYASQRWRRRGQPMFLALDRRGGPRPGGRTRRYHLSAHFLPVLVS
# rRNA inh HTS OD600: further read-out of rRNA inh HTS, marked with its call; OD600 change, %; measured here: OD600 growth;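 optical density of the mix in the first replicate; 0 = DMSO median and -100 = no signal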
# rRNA inh HTS RFP: further read-out of rRNA inh HTS, marked with its call; RFP signal change, %; measured here: RFP humanized mutant strains;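 first replicate; 0 = DMSO median and -100 = no signal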
# * = called active by the depositor; i = inactive; ? = inconclusive; . = not tested or not shown; & = joins results of further samples.
SMILES,MLL AF4-AF9 inh,rRNA inh HTS,rRNA inh HTS OD600,rRNA inh HTS RFP,Calb FLC,RanGTP-Impb inh,Beta apoptosis,T cruzi inh,ALR H2O2 inh,FGF22 binding
O=C(/C=C/c1ccc(Br)cc1)NC(=S)Nc1ccc(S(=O)(=O)Nc2nccs2)cc1,.,.,.,.,3,3.7,-7,-34,-3,.
COc1ccc(F)cc1CSc1nnnn1-c1ccc(O)cc1,1.0,-51,-68,-6.2,-2,1.2,.,-2,7,i
CNC[C@H](O)c1cccc(O)c1,2.2,16,15,3.6,.,-69,2,3,6,i
CC(=O)NC12CC3CC(C1)CC(C(=O)N1CCN(c4ncccn4)CC1)(C3)C2,-1.7,15,15,3.0,0,4.7,-1,-10,-3,i
C=COCCNC(=S)Nc1ccccc1,-3.3,13,21,3.1,-6,4.3,-7,-9,28,i
Cc1cc(C)c(NC(=O)CN2C(=O)CC(C)S(=O)(=O)c3ccccc32)c(C)c1 (stereo not drawn),0.9,1,8,-0.1,-6,2.1,-4,4,1,i
O=C(OCC(=O)N1CCc2ccccc2C1)c1cccs1,-3.1,-4,-5,-2.0,20,3.9,-5,-16,-13,i
Cc1cccc(C(C)C)c1NS(=O)(=O)c1cn(C)nc1C,0.7,6,8,1.3,-3,-0.5,7,1,-15,i
O=C(OCc1nnc(-c2ccccc2)o1)c1cc(F)c(F)cc1Cl,-1.9,2,16,-0.6,?,4.4,-5,-15,11,i
COc1ccc(C2=NOC(C(=O)NCc3cccs3)C2)cc1 (stereo not drawn),.,.,.,.,0,5.9,-1,-6,1,.
CC(C)Nc1nc2c(c(=O)n(C)c(=O)n2C)n1C,12,6,0,-6.0,0,0.8,-1,-8,37,i
COCCCN1CCc2[nH]c(=S)[nH]c(=O)c2C1,.,.,.,.,-12,-5.1,-15,-11,.,.
COc1ccc(NC(=O)CCS(=O)(=O)c2cccc3nonc23)c(OC)c1,.,.,.,.,-13,?,-7,6,-67,.
O=C(Cn1nnc(-c2cccs2)n1)N1CCc2ccccc2C1,.,.,.,.,-3,-0.7,2,-8,-19,.
CN(CC(=O)Nc1ccc(F)cc1)C(=O)c1ccc(N2C(=O)CCC2=O)cc1,?,3,7,-1.6,.,.,-3,.,.,i
COc1ccc(-n2c(O)c(C=Nc3ccccc3)c3ccccc3c2=O)cc1OC,1.7,11,-3,-5.9,1,-4.1,14,25,.,i
CCC(CC)C(=O)Nc1cccc(-c2nc3ccccc3o2)c1,.,.,.,.,-10,-0.4,9,9,-4,.
CC(=O)N1CCC(N(C(=O)Nc2c(F)cccc2F)C(C)C)CC1,-3.3,9,8,1.9,-4,-1.2,-9,-21,-26,i
Cc1cc(C)cc(C(=O)NCC(=O)OCC(=O)c2c(N)n(C)c(=O)n(C)c2=O)c1,2.6,2,0,-1.1,.,.,-2,.,4,i
Cc1cc(Cl)ccc1C(=O)C1CCCN(C(=O)c2snnc2C)C1 (stereo not drawn),0.2,-1,-13,-1.7,-4,1.3,5,-3,-7,i
CCN1C(=O)[C@H]2[C@@H](c3ccc(C)cc3)N3C(=O)N(c4ccccc4)C(=O)[C@@]3(CC)[C@H]2C1=O,-0.1,7,0,0.0,-4,-2.0,0,-1,5,i
Brc1ccc(CN2CCN(c3ccccn3)CC2)s1,2.1,-25,-21,-2.6,-2,-3.1,0,1,1,i
CC(NC(=O)COC(=O)c1cc([N+](=O)[O-])ccc1N1CCOCC1)c1ccccc1 (stereo not drawn),3.7,6,5,1.8,-6,-1.9,1,6,1,i
Cc1cc(NC(=O)CN2C(=O)c3ccccc3C2=O)no1,-1.1,9,8,-1.9,-8,0.5,-5,-3,1,i
Cc1ccc(OC(C)C(=O)Nc2ccc3c(c2)n(C)c(=O)n3C)c(C)c1 (stereo not drawn),-2.0,-3,-3,-4.7,16,0.6,-10,12,34,i
O=C(c1cccc2ccccc12)N1CCN(Cc2ccccc2F)CC1,1.2,-4,-2,1.5,11,4.0,12,-10,-1,i
O=C(NCc1ccccc1)NC12CC3CC(CC(C3)C1)C2,.,4,1,-0.9,-11,4.8,-1,0,-8,i
CCCNC(=O)c1onc(CSc2ccc(F)cc2)c1C(=O)NCC1CC1,-5.6,-2,-3,-10,3,4.1,1,-1,0,i
O=C(O)CC/C(=N\NC(=O)c1ccccc1Br)c1ccccc1,-1.7,.,.,.,10,1.0,0,-2,0,i
C=CC[C@@H](CC(=O)N(CCO)Cc1ccccc1)C(=O)N[C@@H](C)COC(=O)[C@@H](CC=C)CC(=O)OC(C)(C)C,-2.6,-12,-18,8.9,.,.,5,.,-4,i
O=C(COc1cc(Cl)c(Cl)cc1Cl)NCCc1ccccn1,-2.2,-1,-9,-0.2,25,-0.2,3,3,1,i
CSc1cccc(N2CC(C(=O)NCCC3=CCCCC3)CC2=O)c1 (stereo not drawn),-0.5,-9,-20,-2.1,1,.,2,-12,-3,i
Cc1cc(Cl)ccc1OC(C)c1nnc(N)s1 (stereo not drawn),.,.,.,.,-8,0.4,-6,-5,0,.
O=C(NNC(=O)c1ccccc1C(=O)O)c1cc2ccccc2o1,1.4,4,7,2.7,23,?,-1,2,-17,i
CS(=O)(=O)Nc1ccc(C(=O)NCCSCc2ccccc2)cc1,-0.3,10,6,1.1,-7,4.8,-3,-10,.,i
O=C(NCCCl)NNc1c(Cl)cc(Cl)cc1Cl,3.1,-10,8,-3.4,-2,-2.1,-2,-16,5,i
CCC1CCc2c(sc(NC(=O)c3ccoc3C)c2C(N)=O)C1 (stereo not drawn),.,.,.,.,1,-1.0,3,24,2,.
COc1ccc(NC(=O)CSc2nc(NS(=O)(=O)c3ccccc3)cc(=O)[nH]2)cc1,.,.,.,.,-9,11,2,-6,100*,.
CCOc1ccc(S(=O)(=O)Nc2cc(SCC(=O)O)c(O)c3ccccc23)cc1,5.3,-35,-38,-6.5,2,-2.9,.,18,67,i
Nc1c(N2CCN(c3ccccc3)CC2)c2ccccc2oc1=O,.,.,.,.,-2,-2.4,-1,-2,98*,.
C[C@H](CO)N1C[C@H](C)[C@@H](CN(C)C)Oc2c(NS(=O)(=O)c3cccs3)cccc2C1=O,-3.8&-2.5,1&17,2&3,-0.2&1.7,.,.,-1,.,-3,i
COc1ccc(C(CNC(=O)c2cc(F)c(F)c(F)c2F)N2CCOCC2)cc1 (stereo not drawn),0.7,15,6,1.8,-6,19*,2,-3,.,i
Cc1ccc(S(=O)(=O)Nc2ccc(C(=O)NCc3cccnc3)cc2)cc1,-0.4,1,-6,2.6,24,0.0,-1,-5,-11,i
CC(=O)Nc1ccc(NC(=O)c2ccccc2N(C)S(=O)(=O)c2ccc(C)cc2)cc1,-9.9,-1,13,0.8,-13,-2.4,-1,12,10,i
O=C(NCC(c1ccc(F)cc1)N1CCOCC1)c1c(F)cccc1F (stereo not drawn),-0.1,6,5,-5.3,4,-0.1,-1,-12,.,i

# Reprinted from the results shown for reference:
SMILES,MLL AF4-AF9 inh,rRNA inh HTS,rRNA inh HTS OD600,rRNA inh HTS RFP,Calb FLC,RanGTP-Impb inh,Beta apoptosis,T cruzi inh,ALR H2O2 inh,FGF22 binding
CSc1cccc(N2CC(C(=O)NCCC3=CCCCC3)CC2=O)c1 (stereo not drawn),-0.5,-9,-20,-2.1,1,.,2,-12,-3,i
Cc1cc(Cl)ccc1OC(C)c1nnc(N)s1 (stereo not drawn),.,.,.,.,-8,0.4,-6,-5,0,.

# Complete entries, looked up by structure. Order of screens: MLL AF4-AF9 inh | rRNA inh HTS | rRNA inh HTS OD600 | rRNA inh HTS RFP | Calb FLC | RanGTP-Impb inh | Beta apoptosis | T cruzi inh | ALR H2O2 inh | FGF22 binding
# COc1ccc(NC(=O)CSc2nc(NS(=O)(=O)c3ccccc3)cc(=O)[nH]2)cc1 is entered as . | . | . | . | -9 | 11 | 2 | -6 | 100* | .
# Nc1c(N2CCN(c3ccccc3)CC2)c2ccccc2oc1=O is entered as . | . | . | . | -2 | -2.4 | -1 | -2 | 98* | .
# Cc1ccc(S(=O)(=O)Nc2ccc(C(=O)NCc3cccnc3)cc2)cc1 is entered as -0.4 | 1 | -6 | 2.6 | 24 | 0.0 | -1 | -5 | -11 | i
# O=C(NNC(=O)c1ccccc1C(=O)O)c1cc2ccccc2o1 is entered as 1.4 | 4 | 7 | 2.7 | 23 | ? | -1 | 2 | -17 | i
# Cc1cc(Cl)ccc1OC(C)c1nnc(N)s1 (stereo not drawn) is entered as . | . | . | . | -8 | 0.4 | -6 | -5 | 0 | .

# Following part:
SMILES,MLL AF4-AF9 inh,rRNA inh HTS,rRNA inh HTS OD600,rRNA inh HTS RFP,Calb FLC,RanGTP-Impb inh,Beta apoptosis,T cruzi inh,ALR H2O2 inh,FGF22 binding
Cc1ccc(S(=O)(=O)/N=C/c2ccco2)cc1,.,.,.,.,-7,0.9,-5,-20,-4,.
O=c1ccc(-c2ccccc2)nn1Cc1ccc(F)cc1,0.3,-3,-4,1.2,0,-1.5,-14,-1,-5,i
CCN1CCN(C(=S)NCCOC)CC1,-0.1,-5,6,-2.7,-5,-2.9,-8,-19,-20,i
CC(NC(=O)C1CCN(C(=O)c2ccc(F)cc2)CC1)c1ccc(S(N)(=O)=O)cc1 (stereo not drawn),0.2,1,15,0.9,.,.,1,.,.,i
CN(CC(=O)Nc1ccccc1Cl)C(=O)COC(=O)CNC(=O)c1ccc(Br)o1,.,.,.,.,-3,-0.6,-7,-9,-12,.
NC(=O)C1CCN(C(=O)C2CC(=O)N(c3ccc(F)cc3)C2)CC1 (stereo not drawn),-0.1,21,12,0.2,-5,0.3,1,-22,-5,i
O=C1Nc2cc(C(=O)N3CCN(c4ccc(F)cc4)CC3)ccc2NC1CSCc1cccc(F)c1 (stereo not drawn),0.9,11,19,5.8,-1,-1.2,-2,-5,-16,i
CN(C)c1ccc(SC#N)cc1,.,-10,-4,5.0,-6,9.6,.,14,?,i
COc1ccc2cc(C(C)C(=O)N3CCC(C(N)=O)CC3)ccc2c1 (stereo not drawn),0.8,1,-1,-0.8,10,1.5,-6,1,-2,i
O=S(=O)(c1ccc(SCc2ccccc2)nc1)N1CCCCCC1,-3.3,2,5,0.6,.,.,-6,.,-1,i
CNC(=S)NCCN1CCOCC1,.,.,.,.,-5,3.5,3,-6,-4,.
CCCCN(C(=O)c1ccccc1Br)C1CCS(=O)(=O)C1 (stereo not drawn),-1.1,5,5,-0.8,0,-4.3,2,-7,-7,i
COc1ccc(C(=O)Nc2nnc(S(=O)(=O)Cc3ccc(F)cc3)s2)cc1,-11,-1,17,-1.3,-4,1.5,7,-9,-1,i
COc1ccccc1-n1c2c(cc(C(=O)N3CCC(C)CC3)c1=O)C(=O)CC(C)(C)C2,-1.9,10,21,-0.2,-4,-2.1,-9,2,3,i
Cc1ccc(-n2nc3ccc(N)cc3n2)cc1C,-2.4,9,5,-2.1,1,-0.9,.,7,-15,i
CCC(C)[C@H](NC(=O)N1CC(=O)Nc2ccccc21)C(=O)N[C@H](C(=O)O)c1ccccc1 (stereo partly drawn),-5.0,5,3,-14,-10,-0.3,-14,-6,.,i
CCn1c(=O)c(C(C)=O)c(O)c2ccccc21,0.6,-1,-19,-0.5,16,-1.2,2,-8,-6,i
Cc1ccc(S(=O)(=O)c2nnn3c2nc(Nc2cccc(C)c2)c2ccccc23)cc1,.,.,.,.,?,2.8,.,-16,-2,.

# These rows are one share of the data. The share of hits here may be higher or lower than overall.
